Screening results: PubChem BioAssay, ICCB-Longwood Screening Facility, Harvard Medical School
Mtb MbtI inh – blocks the Mycobacterium tuberculosis siderophore enzyme MbtI; P9WFX0; purified MbtI enzyme, fluorescence intensity read-out; inhibition, %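 (about 17 µg/mL by stock and volumes)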; actives 0.89% (n = 100,000); AID 493033;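 active = above 50% in both replicates, above 80% if mildly self-fluorescent; inactive = the rest, strongly fluorescent compounds included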;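 note: 0% = mean of negative and 100% = mean of positive controls; one replicate is shown; some compounds called inactive have numbers as strong as hits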
Target sequence (P9WFX0 whole entry, looked up): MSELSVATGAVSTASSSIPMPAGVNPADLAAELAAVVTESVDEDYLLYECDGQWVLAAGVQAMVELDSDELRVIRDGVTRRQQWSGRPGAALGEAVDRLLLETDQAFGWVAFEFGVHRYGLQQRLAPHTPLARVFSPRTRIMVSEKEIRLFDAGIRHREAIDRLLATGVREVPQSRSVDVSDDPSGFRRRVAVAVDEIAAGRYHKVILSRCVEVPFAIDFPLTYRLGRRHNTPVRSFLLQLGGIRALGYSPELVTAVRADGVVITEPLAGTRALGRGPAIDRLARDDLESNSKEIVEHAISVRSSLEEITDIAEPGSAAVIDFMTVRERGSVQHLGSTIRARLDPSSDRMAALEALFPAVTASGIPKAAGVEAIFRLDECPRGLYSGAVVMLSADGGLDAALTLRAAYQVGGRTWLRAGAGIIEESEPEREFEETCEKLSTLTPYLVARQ
PV pol inh – inhibitors of poliovirus RNA polymerase binding and polymerization; poliovirus polymerase elongation, fluorescence polarization; active compounds read low; % elongation, % (compound at 16.7 µg/mL); actives 0.66% (n = 150,000); in the data active = % elongation below about 90%; note: some results filed as inactive read as strong as hits
Mtb MenB inh – inhibitors of Mycobacterium tuberculosis MenB enzyme. AID 540299. inhibition, %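 (about 12 µg/mL by stock and volumes)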. MenB enzyme assay, absorbance read-out; some hits fall short of the stated cut. actives 0.43% (n = 100,000). P9WNP5;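 active = mean of two replicates above 30%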;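 note: 0% = no compound and 100% = wells with inactive enzyme; the first replicate is given; strong numbers were not always called active; inactives centre near -10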
Target sequence (P9WNP5 whole entry, looked up): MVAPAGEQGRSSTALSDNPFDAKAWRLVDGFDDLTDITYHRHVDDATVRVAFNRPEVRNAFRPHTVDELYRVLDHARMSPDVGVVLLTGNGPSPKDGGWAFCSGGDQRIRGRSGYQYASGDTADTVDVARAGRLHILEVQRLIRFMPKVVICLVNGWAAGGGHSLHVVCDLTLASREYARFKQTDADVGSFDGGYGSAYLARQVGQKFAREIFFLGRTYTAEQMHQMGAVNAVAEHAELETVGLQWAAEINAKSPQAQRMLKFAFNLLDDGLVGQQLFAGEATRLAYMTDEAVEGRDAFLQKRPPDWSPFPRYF
PV pol inh intensity – recorded beside PV pol inh, whose call it bears; % elongation; measured here: total intensity read-out; formula for this scale not given here;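 total fluorescence in place of polarization; lower means less elongation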
* = called active by the depositor; nt = not tested or not shown.

Molecule	Mtb MbtI inh	PV pol inh	PV pol inh intensity	Mtb MenB inh
O=C(NC(CO)C(=O)O)c1ccncc1 (stereo unspecified)	-7	103	101	-9
N#CCc1nc2ccccc2n1C(=O)CCN1C(=O)c2ccccc2C1=O	-4	108	101	-27
COc1ccc(NC(=O)c2ccc3c(c2)C(=O)N(Cc2cccnc2)C3=O)cc1	-15	101	102	-12
CN(C)CCCSC(=N)N	-8	103	104	-41
O=C(CCCn1c(=O)c2cccn2c2ccccc21)NCCc1ccccc1	-11	101	104	-4
CC1(C)CC(=O)C2=C(C1)OC1=C(C(=O)CC(C)(C)C1)C2c1cccc(O)c1	-2	101	98	-28
CCOc1ccc(-n2c(=O)c3c4c(sc3n(CC(=O)NCC3CCCO3)c2=O)CCCC4)cc1 (stereo unspecified)	-7	102	104	-7
O=C(NCc1ccco1)c1ccc2c(=O)n(-c3ccccc3)c(=O)n(CC(=O)N3CCN(c4ccccc4)CC3)c2c1	-9	100	102	-7
O=c1c[n+]([O-])c2ccccc2n1OCc1ccccn1	-8	103	103	-49
Cn1c(CN2CCCC2)nc2cc(NC(=O)c3ccccc3)ccc21	9	101	103	-18
COC(=O)c1ccccc1NC(=O)C1CCCC1	-14	104	104	-28
Cc1nn(-c2ccc(Cl)cc2)c2sc(C(=O)N(C)C3CCCCC3)cc12	-6	106	106	5
N#C/C=C(\Cl)c1ccccc1	5	100	91	nt
Cc1ccc(C2=NC3(CCN(C(=O)c4ccccc4)CC3)NC2=O)cc1	-5	103	98	-37
O=C(O)c1cnn(-c2ccccc2)c1-n1cccc1CNCc1ccccc1	-12	97	98	-9

(list continues)
Molecule	Mtb MbtI inh	PV pol inh	PV pol inh intensity	Mtb MenB inh
O=C(O)CCc1ccc(-c2ccc(F)cc2)n1CCC(=O)O	8	100	102	-24
CCCCS(=O)(=O)Nc1ccc2c(c1)ncn2C1CCCCC1	-12	102	101	10
O=C(NC(=S)Nn1cnnc1)c1ccc(F)cc1Cl	8	109	111	-1
CSc1ncnc2nc[nH]c12	9	99	99	13
Cn1cnc(S(=O)(=O)NCc2ccc3c(c2)OCO3)c1	4	104	101	-3
CS(=O)(=O)c1cccc(C(=O)Nc2nccs2)c1	22	101	108	-24
O=C(/C=C/c1ccc(S(=O)(=O)N2CCOCC2)cc1)N(CCO)Cc1ccccc1	2	97	92	-23
C=CCn1c(C)cc(C(=O)CSc2nc(O)cc(=O)n2CCC)c1C	13	101	100	-68
c1cncc(-c2nnc(-c3cccnc3)nn2)c1	nt	66*	71*	18
CN(CCC#N)C(=O)Cn1nc(Cc2cccnc2)c2ccccc2c1=O	0	100	105	10
O=C1c2ccccc2C(=O)N1CNCC(O)c1ccccc1 (stereo unspecified)	nt	103	104	-3
O=C1N(c2ccccc2)C(c2ccc(C(F)(F)F)cc2)C1(F)F (stereo unspecified)	8	99	93	-1
CC(NC(=O)CCc1nc2ccccc2[nH]1)c1ccccc1 (stereo unspecified)	-10	105	109	-13
O=C(CNCc1ccccc1F)Nc1ccc(N2CCCC2)cc1	6	102	103	-25
COc1ccc(C2CC(=O)C3=C(C2)NC(C)=C(C#N)C3c2ccc(N(C)C)cc2)cc1 (stereo unspecified)	2	103	103	-29

Next records follow:
Molecule	Mtb MbtI inh	PV pol inh	PV pol inh intensity	Mtb MenB inh
O=C(NC(=S)Nc1ccccc1Cl)c1cnn2c(C(F)(F)F)cc(C(F)(F)F)nc12	-16	103	107	-9
CC(C)C(=O)Oc1ccc2c3c(c(=O)oc2c1)CCC3	-14	104	101	0
S=C(Nc1ccccc1)NC1CC2CCCC(C1)N2C1CC1 (stereo unspecified)	-1	103	101	22
Cc1ccc(NC(=O)N2CCC(N(C)C(C)C)CC2)cc1C	1	100	101	-26
O=C(/C=C/c1ccccc1)Oc1nc2ccccc2s1	nt	85*	87*	3
NC[C@@H]1CC[C@@H](N)[C@@H](O[C@H]2[C@H](O)[C@@H](O[C@H]3O[C@H](CO)[C@@H](O)[C@H](N)[C@H]3O)[C@H](N)C[C@@H]2N)O1	-10	100	100	-11
COc1ccccc1/C=N\NC(N)=S	33	103	102	-10
Cc1ccc(S(=O)(=O)N2CCC(C)CC2)cc1	-2	101	106	nt
CN(Cc1ccccc1)c1ncnc2c1nc1n2CCCCC1	-18	101	104	-8
CC(C)N=C(NC#N)NC(C)C	6	104	96	11
CCc1n[nH]c(=S)n1/N=C1\C(=O)N(CC(C)C)c2ccccc21	17	99	98	-22
CCOC(=O)C1=CC2c3ccc(Br)cc3C=CC2OC1=O (stereo unspecified)	7	102	101	-11
COc1ccc(OCc2cc(=O)[nH]c3ccccc23)cc1	19	101	102	-51
O=C(O)c1cc2nc(C3CC3)cc(C(F)(F)F)n2n1	nt	100	102	-8
COc1ccc(N(Cc2cc(-c3ccco3)on2)S(=O)(=O)c2cc(C)ccc2C)cc1	11	104	104	-17

(list continues)
Molecule	Mtb MbtI inh	PV pol inh	PV pol inh intensity	Mtb MenB inh
CSc1nc(C)nc(Nc2ccc(Cl)cc2Cl)c1C#N	7	102	100	-11
CCOC(=O)C1=C(C)NC(=S)NC1c1c(F)cccc1Cl (stereo unspecified)	15	102	103	-19
O=C(CSc1nc(-c2ccccc2)cs1)N1CCOCC1	-7	101	102	-20
O=C(N/N=C/c1c(O)ccc2ccccc12)C1CC12CCC2 (stereo unspecified)	29	100	101	19
COc1ccc2nc(Cl)c(CNCCN(C)C)c(N3CCCCC3)c2c1	6	105	100	-21
COc1ccccc1/C=C/C(=O)OCC(=O)Nc1ccc(Cl)cn1	85	101	101	-6
O=C(COc1ccc(-c2nnco2)cc1)NCc1ccco1	2	106	101	12
CC1CCN(c2nc(N3CCCCC3)nc(N3CCCCC3)n2)CC1	-5	102	103	-21
COC(=O)c1[nH]c2ccc(F)cc2c1N	88	101	100	-19
Cc1cc(C)c(C#N)c(SCC(=O)Nc2sc3c(c2C#N)CCC(C(C)(C)C)C3)n1 (stereo unspecified)	-8	102	104	-19
S=C(NC1CC1)N1CCN(c2ccc(Cl)cc2)CC1	-18	100	100	-12
O=C(N/C(=C\c1ccc2c(c1)OCO2)C(=O)N1CC2CC(C1)c1cccc(=O)n1C2)c1ccccc1F (stereo unspecified)	-16	102	101	-17
O=C(Nc1ccccc1)N1CCN(c2ccc(C(F)(F)F)cn2)CC1	-4	102	104	-9
CC1(C)CC(NC(=O)NCc2ccc3c(c2)OCO3)CC(C)(CNC(=O)NCc2ccc3c(c2)OCO3)C1 (stereo unspecified)	-5	102	105	-26
CC1CCCCN1S(=O)(=O)c1ccc(S(=O)(=O)NCc2ccc(F)cc2)cc1 (stereo unspecified)	-1	104	105	29

New compounds follow
Molecule	Mtb MbtI inh	PV pol inh	PV pol inh intensity	Mtb MenB inh
O=C1CCCN1c1ccc(S(=O)(=O)N2CCCCC2)cc1	-19	103	103	-15
CC(C)NS(=O)(=O)c1ccc(OCC(N)=O)cc1	-2	99	101	5
N#CN=C(N)CSc1nc(-c2ccccc2)cc(-c2ccccc2)c1C#N	35	104	104	-63
O=C(Nc1ccn([C@H]2CC[C@@H](CO)O2)c(=O)n1)c1ccccc1	2	103	106	-21
Cc1cc(/C=N/n2c(SCC(=O)O)nnc2-c2ccoc2C)cc(C)c1O	-7	103	103	-14
Cn1c(=O)c(C(=O)NCCc2ccccc2)cc2cccnc21	8	103	108	-8
CC1CCCC(NC(=O)COC(=O)Cc2cccs2)C1C (stereo unspecified)	22	100	94	-7
Cc1ccc(-c2onc(C)c2C)cc1S(=O)(=O)NCCC1=CCCCC1	13	99	102	-32
CC1CCN(C(=O)COC(=O)c2n[nH]c3ccccc23)CC1	19	103	105	nt
O=C(NCc1ccccn1)/C(=C/c1ccccc1Cl)c1ccccc1	-9	101	96	-33
O=C(NCc1ccccc1)NC(=O)c1ccccc1I	-28	100	102	-24
CCCn1c2ccccc2c2nnc(SCCCC(=O)c3ccc4c(c3)OCCO4)nc21	-5	104	108	0
CC(C)(C)CC(=O)NCc1nc(-c2ccc(Cl)cc2)no1	-20	101	103	5
CCOc1ccc(N2C(=O)CC(NC3CCN(c4ncccn4)CC3)C2=O)cc1 (stereo unspecified)	-4	101	103	-12
CC(C)CC(NC(=O)Cc1ccsc1)C(=O)NN (stereo unspecified)	1	102	99	-4

Additional records follow:
Molecule	Mtb MbtI inh	PV pol inh	PV pol inh intensity	Mtb MenB inh
OC(c1ccccc1)c1oc2ccccc2c1-c1cnn(-c2ccccc2)c1 (stereo unspecified)	nt	107	113	-27
COC(=O)CSc1nc(N2CCOCC2)c2c(c1C#N)CC(C)(C)OC2	11	101	102	-4
COc1ccc(C(=O)Oc2ccc3oc(=O)sc3c2)cc1	-14	102	102	-14
O=C(COc1ccc(Cl)cc1)Nc1ccc2oc(-c3c(F)c(F)c(F)c(F)c3F)nc2c1	18	101	100	1
O=C(O)CSc1nccc2ccccc12	1	101	101	-8
CC(C)(C)c1ccc(C(=O)Nc2cccc(C(F)(F)F)c2)cc1	-9	103	105	-26
CCn1cc(C(=O)NN)c(=O)c2cc(F)c(NN)cc21	16	104	105	-37
CC1=NN(c2cc(Cl)cc(Cl)c2)C(=O)CC1	-4	105	112	-25
Cc1cccc(NC(=S)N(C2CCCCC2)C(C)c2ccco2)c1 (stereo unspecified)	-2	100	101	-33
COc1ccc(CNCc2ccco2)cc1	nt	106	108	-7
CCn1nnc2c(N3c4ccccc4CC3C)ncnc21 (stereo unspecified)	18	102	111	-42
O=c1oc2ccccc2c(O)c1Sc1ccccc1	31	96	91	-3
Cc1cc(=O)oc2n[nH]c(-c3ccccc3)c12	nt	108	103	-18
O=C(/C=C/c1ccc(Br)o1)Nc1ccc(N2CCOCC2)cc1	-6	100	104	nt
COc1ccc(-c2nn(CO)c(=S)n2-c2ccccc2)cc1	nt	103	101	-18

More results:
Molecule	Mtb MbtI inh	PV pol inh	PV pol inh intensity	Mtb MenB inh
Cc1ccc(F)c2ncc3c(=O)n(-c4ccccc4Cl)[nH]c3c12	nt	104	107	-36
c1csc(CNC23CC4CC(CC(C4)C2)C3)c1	-1	105	114	1
O=C(NN=C1C2CC3CC(C2)CC1C3)c1cccs1	11	99	102	-2
Cc1ccc(-c2cc(C(N)=O)on2)cc1	20	100	100	-5
Cc1nnc(SCC(=O)O)n1N	-18	104	100	-1
COc1ccc(CCNC(=O)CSc2nnc(C)s2)cc1OC	-1	102	102	-4
O=C(c1cnn2ccccc12)N1CCc2ccccc21	-10	102	100	-22
O=C(O)c1cccc2c1C(=O)N(C1CCCCC1)C2	nt	101	104	-10
CCN1CCC(NCc2ccccc2C(F)(F)F)CC1	-2	101	100	8
O=C(CN1CCCCCC1=O)OCc1cc(Cl)cc2c1OCOC2	0	100	101	-29
Cc1noc(C)c1CC(=O)N1CCN(S(=O)(=O)c2ccc3c(c2)OCCCO3)CC1	-5	100	96	-40
COc1ccccc1N(C)S(=O)(=O)c1ccc(C(=O)Oc2ccc(-c3nnco3)cc2)cc1	-20	108	111	-34
Oc1[nH]c(=S)sc1N=Nc1ccc(F)cc1F	49	113	116	-40
CC(=O)N1CC=C2C(C#N)=C(N)C(C#N)(C#N)C(C)C2C1 (stereo unspecified)	-1	98	112	-17
O=C(Sc1ccccn1)N1c2ccccc2Sc2ccccc21	-2	102	104	-12

(cont.)
Molecule	Mtb MbtI inh	PV pol inh	PV pol inh intensity	Mtb MenB inh
O=C1c2ccccc2-c2c1cnc1c(-c3ccccc3)cnn21	-15	107	110	13
O=C(c1c2c(nc3ccccc13)C(=O)N(C1CCCCC1)C2)N1CCCCCC1	-6	100	102	-2
O=C(Cn1ccc2ccccc2c1=O)NCCC(=O)N1CCCC1	6	102	103	-11
O=C(c1cc2c(s1)CCCC2)N1CCN(CCO)CC1	7	98	95	nt
N#C/C(=N\Nc1ccccc1C(F)(F)F)C(=N)N1CCOCC1	12	99	101	-8
Cn1c(=O)c2c(nc3oc(C(C)(C)C)cn32)n(C)c1=O	0	105	104	5
COc1ccc(CN2CCCN(Cc3ccc(OC)cc3)C2c2ccc(OC)cc2)cc1	-2	102	102	4
c1ccc(-n2nnnc2NCC(c2cccs2)c2c[nH]c3ccccc23)cc1 (stereo unspecified)	-52	102	108	-23
CNC(=O)NCc1c(F)cccc1Cl	-4	102	103	-7
O=C1C=C(Nc2ccc(I)cc2)CCC1	0	103	95	nt
CCOC(=O)c1sc(NC(C)=O)nc1-c1ccccc1	1	101	100	6
O=C1CCCCCN1Cc1n[nH]c(=S)o1	74*	82*	89*	-28
CC(C)(C)c1ccc2c(c1)OCC(C(=O)O)O2 (stereo unspecified)	-6	96	100	6
NC(=O)CCSc1n[nH]c(=S)s1	56	101	107	-7
CCc1ccc(NC(=O)c2cccc3c2C(=O)N(CCOC)C3)cc1	1	103	101	-15

Rows are unselected; about 2% have a hit in one of these screens.
